# Source: PubChem
# HPGD block: inhibitors of human 15-hydroxyprostaglandin dehydrogenase (HPGD); P15428; purified HPGD, NADH fluorescence kinetic, PGE2 substrate; Potency, µM, without a hit: at the top dose activity change, negative = inhibition, most hits filed as inhibitors; 4.3% of 150,000 active; active = well fitted inhibition curve with a large enough effect (not every such curve was filed as active); inconclusive = small, poorly fitted or top-dose-only effect, or another doubt; inactive = no such curve, though single readings can be large or run the other way;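 further: top concentration of the series not given in the record; plate controls included wells without enzyme; inactives centre near -10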
# Target sequence (P15428 whole entry, looked up): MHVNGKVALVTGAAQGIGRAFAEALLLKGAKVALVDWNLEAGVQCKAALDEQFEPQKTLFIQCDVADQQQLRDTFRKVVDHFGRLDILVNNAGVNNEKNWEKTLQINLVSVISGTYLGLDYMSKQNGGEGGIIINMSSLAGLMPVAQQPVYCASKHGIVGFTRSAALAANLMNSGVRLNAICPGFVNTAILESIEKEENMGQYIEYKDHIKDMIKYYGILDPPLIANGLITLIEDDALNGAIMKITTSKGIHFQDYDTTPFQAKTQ
#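 NADH formation kinetics: reaction with 30 uM PGE2 and 1 mM NAD+ (final), 20 nM enzyme, Tris-HCl pH 8 with Tween 20, after 15 min compound preincubation at room temperature. Fluorescence change, last versus first of five reads.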
# * marks the source's active call; other numbers are inactive results; ? = inconclusive; & = joins results of further samples. On the % scale 0 is the no-effect control and ±100 the full control effect; potency means the concentration at half of the fitted maximal effect. A portion of the library (hit frequency here may not be typical).
SMILES,HPGD block
CC1CN(Cc2ccccc2Cl)CC(C)O1 (stereo unspecified),1%
Cn1c(CSc2nc3ccccc3s2)nnc1SCC(=O)NCCCN1CCOCC1,-5%
CCOC(=O)C1=C(C)NC(C)=C(C(=O)OCC)C1C(=O)OCC(=O)N1CCc2ccccc2C1,-14%
O=C(CC1c2ccccc2Oc2ccccc21)NCc1ccco1,-22%
CCN(CC)c1ccc(NC(=O)Cn2c(C(C)NC(=O)c3ccccc3)nc3ccccc32)cc1 (stereo unspecified),-15%
O=C(Oc1c(-c2ccccc2Cl)oc2ccccc2c1=O)c1ccc(Cl)cc1,-18%
CC(C)CNc1c(N)c(=O)oc2ccccc12,-21%
O=C(CCS(=O)(=O)c1cccc2nonc12)NC1CCCCCC1,-14%
Cc1ccc(C(=O)N/C(=C/C=C\c2ccccc2)C(=O)NCc2ccco2)cc1,?
CCCCN(C(=O)c1cc(OC)c(OC)c(OC)c1)C1=CC2CCC(C1)N2C (stereo unspecified),-7%
Cc1ccccc1OCC(=O)Nc1ccc(N2CCN(C(=O)C(C)C)CC2)c(Cl)c1,?
COc1ccc(S(=O)(=O)N(C)CC(=O)NCc2cccnc2)cc1Cl,-14%

# Grouped by structure, the entries above containing a carbonyl joined to an NH by a bond outside any ring.
SMILES,HPGD block
Cn1c(CSc2nc3ccccc3s2)nnc1SCC(=O)NCCCN1CCOCC1,-5%
O=C(CC1c2ccccc2Oc2ccccc21)NCc1ccco1,-22%
CCN(CC)c1ccc(NC(=O)Cn2c(C(C)NC(=O)c3ccccc3)nc3ccccc32)cc1 (stereo unspecified),-15%
O=C(CCS(=O)(=O)c1cccc2nonc12)NC1CCCCCC1,-14%
Cc1ccc(C(=O)N/C(=C/C=C\c2ccccc2)C(=O)NCc2ccco2)cc1,?
Cc1ccccc1OCC(=O)Nc1ccc(N2CCN(C(=O)C(C)C)CC2)c(Cl)c1,?
COc1ccc(S(=O)(=O)N(C)CC(=O)NCc2cccnc2)cc1Cl,-14%

# Next part:
SMILES,HPGD block
CCn1c(CCNC(=O)c2ccc(C)cc2)n[nH]c1=S,0%
Cn1cccc1/C=N/n1c(-c2ccc(Cl)cc2)n[nH]c1=S,4µM*
CCCCn1c(SCC(=O)N2CCCc3ccccc32)nc2c1c(=O)n(C)c(=O)n2C,-8%
Cc1ccc2ccc(C(Nc3ccccn3)c3ccccc3)c(O)c2n1 (stereo unspecified),-13%
O=c1[nH]c(CN2CCN(S(=O)(=O)c3ccc(Cl)cc3)CC2)nc2cc(Cl)ccc12,-8%
COC(=O)N/N=C1\CCCc2ccccc21,-12%
Cn1c(C(=O)OCC(=O)NCc2ccco2)cc2sccc21,?
COc1ccccc1CNC(=O)COC(=O)c1cnccn1,-12%
CC(C)(C)c1[nH]nc2c1C(c1ccc(OC(=O)c3ccco3)cc1)C(C#N)=C(N)O2 (stereo unspecified),-17%
COc1ccc(OC)c(C(c2nnnn2CCc2ccccc2)N2CCN(c3ccccc3)CC2)c1 (stereo unspecified),-1%
CCOC(=O)C1=C(N)OC2=C(C(=O)CC(C)C2)C1c1cccnc1 (stereo unspecified),-12%
O=c1c2c3c(sc2ncn1Cc1ccc(F)cc1)CCC3,-6%
O=C(Nc1c(C(=O)O)[nH]c2ccccc12)NC1CCCCC1,?
Nc1cc(CN2C(=O)c3ccccc3C2=O)cc(Cl)c1O,-25%
O=C(Cn1ncc(Cl)c(Cl)c1=O)NCC1CCCCC1,-8%
CC(=O)c1cccc(N=C2NC(=O)CS2)c1,-17%
CCNC(=S)NNC(=O)c1csc(C(C)C)c1,-27%
COCCCN(C(=O)Cn1ncc2c(=O)oc3ccc(C)cc3c21)C(C)c1ccncc1 (stereo unspecified),-7%
CC(=O)OC1CC2C(C)(C)C=CC(=O)[C@@]2(C)C2CC[C@@]3(C)C(c4ccoc4)OC(=O)C4OC43[C@]12C (stereo partly specified),-9%
Cc1ccc2c(c1)c1c(n2C)-c2[nH]ncc2CC1,-19%
CCc1cccc2c(SC(C)C(=O)NCC3CCCO3)nc(-c3ccccc3)nc12 (stereo unspecified),-14%
CCOc1ccccc1NC(=O)c1cccc(NC(=O)c2ccco2)c1,-12%
COc1ccc(CCNC(=O)c2nonc2N)cc1,-11%
COCCCn1c(SCC(=O)Nc2sc3c(c2C#N)CCCC3)nnc1-c1ccncc1,?
Cc1ccc(Nc2nc(N)c([N+](=O)[O-])c(NCc3ccco3)n2)cc1C,-12%
CCCc1cc(=O)[nH]c(SCC(=O)Nc2ccccc2C#N)n1,-14%
Cc1cc(C)cc(C(=O)Nc2nnc(SCC(=O)N3CCCc4ccccc43)s2)c1,?
COc1ccc(C2=NN(C(=O)CSc3nc4ccccc4s3)C(c3ccc(F)cc3)C2)cc1 (stereo unspecified),-20%
CCCC(C)C(=O)Nc1nc(C)c(-c2csc(Nc3ccccc3OC)n2)s1 (stereo unspecified),?
CS(=O)(=O)c1cccc(C(=O)NCc2ccc(F)cc2)c1,-10%
CC(C)(Oc1ccc(Cl)cc1)C(=O)NCc1ccncc1,2%
CCOC(=O)C1CCN(C(=O)c2ccc(NC(=O)C3CCCO3)cc2)CC1 (stereo unspecified),25µM*
CC1(C)CC(=O)C(C=NCCO)=C(O)C1,-2%
O=C1CC(c2ccc(S(=O)(=O)N3CCCCC3)cc2)CN1 (stereo unspecified),-7%
COc1ccc(CN(C2CCCC2)S(=O)(=O)c2ccc(-n3cnnn3)c(OC)c2)cc1OC,-24%
CC1(C)CC(=O)/C(=C\c2cccc([N+](=O)[O-])c2)C(C)(C)N1,-7%
Cc1ccc(C(=O)Oc2coc(CSc3nnc(NC(=O)C4CC4)s3)cc2=O)cc1,-9%
COc1ccc(C(c2nnnn2CC2CCCO2)N2CCC(C(N)=O)CC2)cc1 (stereo unspecified),1%
CCC(=O)NC(=S)Nc1ccc(NC(=O)c2cccc([N+](=O)[O-])c2C)cc1,-8%
O=C(COc1ccccc1Br)NCCc1nc2ccccc2[nH]1,-4%
Cn1ncc(Br)c1C(=O)NCc1cccs1,16µM*
CS(=O)(=O)c1cnc(-c2ccccc2)nc1Oc1ccc(Cl)cc1,-14%
Cc1ccc(CNc2ccc(O)cc2)cc1,?
CCN(CC(=O)Nc1ccc2c(c1)OCCO2)c1ccc(S(=O)(=O)N2CCOCC2)cn1,-5%
COc1ccc2nc(-n3c(O)c(C4=c5ccccc5=NC4=O)[nH]c3=S)sc2c1,-14%
COC(=O)c1sccc1Oc1ccc(F)cc1[N+](=O)[O-],-5%
COc1ccc(-c2nc(-c3ccccc3)oc2NC(C)C)cc1,-6%
CCCCn1c(SCC(=O)Nc2nccs2)nc2ccccc2c1=O,2%

# Among those listed so far, these contain bromine.
SMILES,HPGD block
O=C(COc1ccccc1Br)NCCc1nc2ccccc2[nH]1,-4%
Cn1ncc(Br)c1C(=O)NCc1cccs1,16µM*

# Later entries
SMILES,HPGD block
CCOC(=O)Cn1c(=O)oc2cc(S(=O)(=O)NCCCc3ccccc3)ccc21,-6%
Cc1ccnc(NS(=O)(=O)c2cccs2)c1,-13%
CCOC(=O)c1cc(C(=O)c2cc(F)ccc2O)coc1=N,?
Cc1cccc(N(C(=O)Cc2cccs2)C(C(=O)NC2CCCC2)c2ccsc2)c1 (stereo unspecified),-2%
CC(=O)/C(=N/Nc1ccccc1Cl)Sc1nnc(C(O)c2ccccc2)n1-c1ccccc1 (stereo unspecified),-6%
COc1ccc(C(CC(=O)O)NC(=O)c2cccs2)cc1 (stereo unspecified),-3%
Cc1ccccc1C(=O)Nc1nncs1,-9%
N/C(=N\OC(=O)Oc1ccccc1)c1ccc(Cl)cc1,-8%
Cc1nn(Cc2ccc(Cl)c(Cl)c2)c(C)c1NC(=O)c1cc(C2CC2)on1,-24%
O=C(/C=C/c1c(F)cccc1Cl)Nc1ccncc1,?
Cc1cccc(NC(=O)C2CCCN2C(=O)OCC(C)C)c1 (stereo unspecified),-4%
Cc1c(C(=O)N2CCCCCC2)oc2ccccc12,16µM*
CC(CCc1ccccc1)NC(=O)C1CCN(S(=O)(=O)N2CCCCC2)CC1 (stereo unspecified),-11%
OC(CNCCc1ccc(C(F)(F)F)cc1)COc1ccc2ccccc2c1 (stereo unspecified),-5%
O=C1CN(C(=O)c2ccccc2)c2ccccc2N1,-17%
CCOC(=O)N1CCC(Nc2ncnc3c2cnn3-c2ccc(Cl)cc2)CC1,?
COCCOC(=O)c1sc(=S)n(CCOC)c1N,28µM*
Cc1nn2c(C)c(C(=O)Nc3ccccc3)cnc2c1C#N,-10%
O=[N+]([O-])c1ccc(N2CCC(O)CC2)nc1,-2%
CCOC(=O)CN1NC2(CCCCC2)NC1=S,-7%
COc1ccccc1N(CC(=O)NCc1ccccc1)S(C)(=O)=O,9%
COc1cccc2c1OC[C@@H](CO)[C@H]2N(C)C(=O)Nc1ccc(Cl)cc1Cl,3%
O=C(Nc1nc2ccc(Oc3ccccc3)cc2s1)c1cc([N+](=O)[O-])ccc1N1CCOCC1,?
COc1cc(C(=O)N2CCN(S(=O)(=O)c3ccc(C)cc3)CC2)ccc1OCc1c(C)noc1C,-5%
O=C(O)c1ccccc1C(=O)Nc1ccc(S(=O)(=O)Nc2nccs2)cc1,-13%&-1%
N#Cc1c(NC2CCCCC2)nc(-c2ccco2)c2c1CCCC2,?
CC(=O)N1CCCc2cc(S(=O)(=O)Nc3ccc(C)cc3C)ccc21,-7%
CC(NS(=O)(=O)c1ccccc1)C(c1cccs1)N1CCN(c2ccccc2)CC1 (stereo unspecified),-17%
N#CCSc1nnc(-c2ccc(S(=O)(=O)N3CCOCC3)cc2)n1CC1CCCO1 (stereo unspecified),-6%
CCOc1ccc(C(NC(=O)c2ccco2)c2ccc(OC)c(OC)c2)cc1 (stereo unspecified),-15%
COC(=O)[C@H](CCSC)NC(=O)NCc1ccc(S(N)(=O)=O)cc1,-7%
Cc1ccc(C)n1NC(=O)c1cccs1,-12%
COc1cc(CNn2nnnc2N)ccc1OCc1c(Cl)cccc1Cl,0%
CCOCCn1c(COc2ccccc2)nc2ccccc21,-9%
NNc1nc2c(Cl)c(Cl)ccc2s1,-21%
CCCOc1ccc(N2C(=O)CC(N3CCOCC3)C2=O)cc1 (stereo unspecified),-7%
O=c1cc(-c2cccc([N+](=O)[O-])c2)[nH][nH]1,-10%
O=NN(CCCl)C(=O)NCCCl,-4%&-6%
Cc1ccc(-n2c(Cn3cnc4ccccc43)nnc2SCC(=O)O)cc1,-14%
O=C(CSc1nc2ccccc2[nH]1)NC(=O)NCc1ccco1,1%
Cc1ccccc1-n1c(SCC(=O)N/N=C/c2c(C)nn(-c3ccccc3)c2C)nc2ccccc2c1=O,-9%
Cn1c2c(c(=O)n(C)c1=O)C(c1ccc(O)cc1)Nc1ccccc1O2 (stereo unspecified),-4%
N=C1CCCN1CC(=O)c1ccc(Cl)cc1,-4%
COc1cc(C)c(C)cc1S(=O)(=O)N1CCN(Cc2ccccc2)CC1,-14%
CCOC(=O)C1=C(C)NC(SCC(N)=O)=C(C#N)C1c1ccncc1 (stereo unspecified),-22%
COC(=O)c1ccc2c(=O)n(CC3CCCO3)c(=S)[nH]c2c1 (stereo unspecified),-15%
COc1ccccc1CNC(=O)c1ccccc1OC,?
COc1cc(C(c2sc3nc(C)nn3c2O)N2CCN(c3ccccc3)CC2)cc(OC)c1OC (stereo unspecified),-5%
CC(=O)Nc1c2c(nn1-c1ccc(C)cc1C)CSC2,-8%
O=C(O)c1cccc(NC(=O)c2cccc(NC(=O)C3CCCO3)c2)c1 (stereo unspecified),-6%
Clc1ccc(-c2nnc(CNC3CC3)o2)cc1,-6%
Nn1c(Cc2cccc3ccccc23)nnc1SCc1c(F)cccc1Cl,22µM*
CC(=O)Nc1ccc2c(c1)CN(c1cc(C)ccc1C)CO2,2%
CC(C)C(C(=O)NCc1ccco1)N(C(=O)CNS(=O)(=O)c1ccccc1)C1CCCC1 (stereo unspecified),-11%
O=C1NCC(COCc2ccco2)O1 (stereo unspecified),-5%
O=C(COc1ccc(N2C(=O)c3ccccc3C2=O)cc1)c1ccccc1,-13%
CCc1ccc(NC(=O)c2noc3c2CCC3)cc1,-29%
O=C(Nc1ccc2c(c1)nc1n2CCOC1)c1ccccc1,-3%
Cc1csc2nc(CNS(=O)(=O)N(C)C)cn12,-14%
Cc1cc(NC(=O)CSc2nnc(-c3c[nH]c4ccccc34)n2-c2ccc(Cl)cc2)no1,-17%

# No new results follow: an excerpt of the list.
SMILES,HPGD block
CCc1ccc(NC(=O)c2noc3c2CCC3)cc1,-29%
O=C(Nc1ccc2c(c1)nc1n2CCOC1)c1ccccc1,-3%
Cc1csc2nc(CNS(=O)(=O)N(C)C)cn12,-14%
Cc1cc(NC(=O)CSc2nnc(-c3c[nH]c4ccccc34)n2-c2ccc(Cl)cc2)no1,-17%

# (list continues)
SMILES,HPGD block
CCCC(=O)Nc1ccc2c(c1)nc(CN1CCCC1)n2C,3%
O=C(Nc1ccc2c(c1)OCO2)c1cccc(S(=O)(=O)N2CCCC2)c1,-1%
O=C(c1cccc(F)c1)N1CCC2(CC1)CCN(c1ccc(-c3ccccc3)cc1)CC2,4%
O=C(CSc1nnc(CCCN2C(=O)c3cccc4cccc(c34)C2=O)n1-c1ccccc1)N1CCCCC1,?
COc1cc(NC(=O)CSc2nccc(C)n2)c(C)cc1[N+](=O)[O-],-10%
O=C(c1ccco1)N(CCC(c1ccccc1)c1ccco1)Cc1ccco1 (stereo unspecified),20µM*
CN(Cc1ccccc1)c1ccc2nnc(-c3ccccc3)n2n1,-24%
Cc1ccc(C(=O)NNC(=O)CCC(=O)Nc2cccc(Cl)c2C)cc1,-2%
O=C(O)CSc1nnc(-c2ccc(S(=O)(=O)N3CCCC3)cc2)n1Cc1ccco1,-16%
COc1ccc2cnnc(SCC(=O)Nc3ccc(C(=O)O)cc3)c2c1OC,?
CCOc1ccc(NC2c3ccccc3C(=O)N2Cc2ccc3c(c2)OCO3)cc1 (stereo unspecified),28µM*
